# PABP polyA inh: PABP poly(A) RNA binding inhibitors, primary screen, biochemical, fluorescence polarization, uHTS; AID 2014, 2009; inhibition, % at 35 µM; Polyadenylate-binding protein 1 (Homo sapiens), P11940; 1% of 290,000 active;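 active = 50% or more with normal probe brightness, or confirmed in later tests; about a fifth of its hits are not listed in these tables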;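 note: calls also rest on retests at 20 µM and on dose response follow-up; controls were probe without protein and protein plus probe with vehicle; some compounds called inactive have numbers as strong as hits; many hits fall short of the cut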
# Target sequence (P11940 whole entry, looked up): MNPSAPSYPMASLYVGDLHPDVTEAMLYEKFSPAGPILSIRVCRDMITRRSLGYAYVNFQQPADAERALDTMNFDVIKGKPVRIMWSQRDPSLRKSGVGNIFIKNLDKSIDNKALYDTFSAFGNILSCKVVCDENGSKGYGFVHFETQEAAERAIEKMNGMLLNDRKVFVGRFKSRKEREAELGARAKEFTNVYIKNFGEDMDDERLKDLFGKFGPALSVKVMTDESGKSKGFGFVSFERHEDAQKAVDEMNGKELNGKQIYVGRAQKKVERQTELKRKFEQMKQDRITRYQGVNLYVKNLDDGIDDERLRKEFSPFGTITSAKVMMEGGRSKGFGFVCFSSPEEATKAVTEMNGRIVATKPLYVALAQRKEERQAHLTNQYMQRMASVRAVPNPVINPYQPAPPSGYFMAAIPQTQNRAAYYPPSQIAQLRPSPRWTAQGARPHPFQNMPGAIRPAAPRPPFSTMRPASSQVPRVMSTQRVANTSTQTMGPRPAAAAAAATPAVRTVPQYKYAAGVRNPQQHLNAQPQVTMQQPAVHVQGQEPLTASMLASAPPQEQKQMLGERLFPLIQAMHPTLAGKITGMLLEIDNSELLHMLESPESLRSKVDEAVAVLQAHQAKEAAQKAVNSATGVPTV
# eIF4H inh: human eIF4H binding inhibitors, primary screen, translation initiation inhibitor project, biochemical, uHTS, fluorescence polarization; eIF4H fluorescence polarization binding assay; 0.94% of 290,000 active; inhibition, % at 35 µM;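 active = 50% or more with normal probe brightness, or confirmed in later tests; about a fifth of its hits are not listed in these tables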;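 note: calls also rest on retests at 20 µM and on dose response follow-up; 0% = protein and probe with vehicle and 100% = probe without protein; strong numbers were not always called active; many hits fall short of the cut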
# CSC inhib: cancer stem cell viability inhibitors, primary screen, luminescence; inhibition, % at 7.5 µM; cancer stem cell-like cells viability; 1.1% of 300,000 active;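 active = mean at 75% or more and at least half the replicates too; tested in HMLE shEcad cells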;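 note: 0% = median of negative and 100% = median of positive control wells; the first replicate is given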
# MT1-MMP act inh: blockers of MT1-MMP proenzyme processing, primary screen, HT1080 RFP-PRO-GFP cells, GFP/RFP fluorescence | GFP/RFP ratio fluorescence, overnight; percent of plate control window, DMSO zero | GFP/RFP ratio change, % at 20 µM | 0.061% of 360,000 active | AID 651647, 2012;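 active = GFP/RFP ratio change of at least 30% with cell ATP level not reduced by more than half and red fluorescence within 50% of control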; note: strong numbers were not always called active
#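 Assay system: HT1080 RFP-PRO-GFP cells. Benchmarks: DMSO vehicle wells and RFP-L50D-GFP reporter cell wells. Times: overnight cell settling, then overnight compound exposure, 37 °C, 5% CO2. Compound: 20 µM single dose, 1% DMSO. Read-out basis: GFP/RFP fluorescence ratio.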
# UUG fidelity: modulators of yeast start codon fidelity, primary screen, whole organism, S. cerevisiae, single point, plate reader | S. cerevisiae UUG-firefly luciferase reporter, luminescence/redox ratio | activity score, % at 18.7 µM | 0.13% of 350,000 active;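 active = replicate mean at a twofold rise or more, about +100% in these data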;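 note: firefly luciferase made from a UUG start codon reports start codon fidelity; reporter light over untreated wells divided by growth signal over untreated wells; some hits fall short of that in this replicate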
# Rce1 inhib: yeast Rce1p protease inhibitors, primary screen, biochemical, fluorescence, cell-free homogeneous; CAAX prenyl protease 2 (Saccharomyces cerevisiae (strain ATCC 204508 / S288c)), Q03530; yeast membranes, quenched prenylated peptide cleavage fluorescence; calls only; 0.27% of 290,000 active;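 active = fall in fluorescence gain of 50% or more versus controls, with final raw signal at or below 3038400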;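 note: plate controls were neutral control wells for no effect and wells lacking membranes for full effect; tested at 10 µM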
# Target sequence (Q03530 whole entry, looked up): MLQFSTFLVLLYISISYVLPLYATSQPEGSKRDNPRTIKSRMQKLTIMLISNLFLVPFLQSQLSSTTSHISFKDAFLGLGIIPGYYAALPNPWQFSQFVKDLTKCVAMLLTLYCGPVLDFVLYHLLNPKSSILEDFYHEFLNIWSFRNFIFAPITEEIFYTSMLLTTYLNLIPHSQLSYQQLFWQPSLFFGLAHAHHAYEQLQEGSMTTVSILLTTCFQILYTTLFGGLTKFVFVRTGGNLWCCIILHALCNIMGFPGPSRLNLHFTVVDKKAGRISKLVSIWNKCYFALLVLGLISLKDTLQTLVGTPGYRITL
# Env fusion inh: inhibitors of HIV-1 Env-driven cell-cell fusion, primary screen, HeLa-JRFL effector, CEM21 target cells, luciferase. inhibition, % at 12.3 µM. 1.1% of 360,000 active;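 active = mean replicate inhibition score of at least 50 and every replicate individually at or above 50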;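 note: 0% = plate neutral controls and 100% = maraviroc near 300 nM; one replicate is shown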
# eIF4H inh retest: second read-out of eIF4H inh, no call of its own (marks repeat the call); inhibition, %; compound at 20 µM; confirmation average;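 mean of two retest wells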
# PABP polyA inh retest: recorded beside PABP polyA inh, whose call it bears; inhibition, %; compound at 20 µM; confirmation repeats;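 mean of two retest wells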
# MT1-MMP act inh RFP: further read-out of MT1-MMP act inh, marked with its call; RFP signal change, %; measured here: RFP expression control read;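 0 = vehicle wells; hits needed this value within 50% of zero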
# Starred values were filed as active, the others as inactive; i = inactive; . = not tested or not shown; & = joins results of further samples; [ ] = another dose, or the depositor's remark.
SMILES,PABP polyA inh,eIF4H inh,CSC inhib,MT1-MMP act inh,MT1-MMP act inh RFP,UUG fidelity,Rce1 inhib,Env fusion inh,others
Cc1oc(-c2ccccc2F)nc1CS(=O)CC(=O)NCCN1CCCCC1C (stereo not drawn),.,.,-4,-3,-1,0,i,-1,
CCNS(=O)(=O)c1ccc(CCC(=O)NCCC2=CCCCC2)cc1,12,5,8,5,6,.,i,25,
[O-]C1=N/[N+](=C/c2ccc(Cl)cc2)CC1,11,-5,-16,3,0,-12,i,.,
CCCNC(=O)Nc1nc(CC(=O)OCC)cs1,9,5,2,6,6,.,i,-22,
O=C(NC1CC1)C1=C[C@@H](c2coc3ccccc3c2=O)C[C@@H](OCc2ccc(CO)cc2)O1,7,-14,-12,1,2,-4&-8,i,16[16.7 µM],
CCC(NS(=O)(=O)c1ccc(OC)cc1)C(=O)NCCC1=CCCCC1 (stereo not drawn),-4,-3,-3,-1,0,15,i,.,
Cc1[nH]n(-c2ccc(Cl)cc2)c(=O)c1C=Nc1ccc(S(=O)(=O)N2CCOCC2)cc1,9,-9,25,6,2,-9,i,.,
Cc1ccc(NC(=O)CCn2ccc([N+](=O)[O-])n2)nc1,-10,-7,-6,0,4,.,i,0,
CCc1cccc(C)c1NC(=O)CCCC(=O)O,-2,-18,-9,5,-1,-2,i,-60,
O=C(NCCCN1CCCCC1)C1CCCN(c2ncnc3c2nc2n3CCCCC2)C1 (stereo not drawn),4,-11,-4,1,1,-12,i,0,
COc1ccccc1NC(=O)CSc1nnc(Cc2ccccc2)o1,63,6,-11,0,3,-10,i,.,eIF4H inh retest=-4;PABP polyA inh retest=19
COc1cc(C(=O)Nc2cc(C(F)(F)F)ccc2-n2cncn2)cc(OC)c1OC,0,6,-22,12,1,-6,i,22,
C/C(=N\NC(=S)Nc1cccc(C)c1)c1ccco1,2,7,-2,2,2,.,i,-22,
O=C(c1ccc(S(=O)(=O)N2CCOCC2)cc1)N1CCN(c2ccc(F)cc2)CC1,6,-6,.,7,-2,10,i,.,
CCOC(=O)C1=C(C)NC2=C(C(=O)CCC2)C1c1cccnc1 (stereo not drawn),-2,1,.,0,1,-6,i,-5,
Cc1ccc(SC(C)C(=O)NCc2ccc(F)cc2)cc1 (stereo not drawn),1,-9,-7,8,3,.,i,18,
Cc1ccc(SCC(=O)Nc2ccc(C(=O)Nc3ccc(O)cc3)cc2)cc1,-6,6,-3,10,8,.,i,2,
O=C(CSc1nnnn1C1CCCC1)Nc1ccc(F)cc1,2,-4,4,3,1,-13,i,6,
CC1Cc2cc(S(=O)(=O)N3CCC(C(=O)N(C)Cc4ccccc4)CC3)ccc2N1C(=O)C1CC1 (stereo not drawn),7,-1,-15,-2,-10,12,i,3,
COc1cc(Cl)c(C)cc1NC(=O)COC(=O)C1CC1C (stereo not drawn),.,.,8,8,1,-1,.,.,

# A draw from above in order of number of heavy atoms, largest number first.
SMILES,PABP polyA inh,eIF4H inh,CSC inhib,MT1-MMP act inh,MT1-MMP act inh RFP,UUG fidelity,Rce1 inhib,Env fusion inh,others
Cc1[nH]n(-c2ccc(Cl)cc2)c(=O)c1C=Nc1ccc(S(=O)(=O)N2CCOCC2)cc1,9,-9,25,6,2,-9,i,.,
Cc1ccc(SCC(=O)Nc2ccc(C(=O)Nc3ccc(O)cc3)cc2)cc1,-6,6,-3,10,8,.,i,2,
CCC(NS(=O)(=O)c1ccc(OC)cc1)C(=O)NCCC1=CCCCC1 (stereo not drawn),-4,-3,-3,-1,0,15,i,.,
CCNS(=O)(=O)c1ccc(CCC(=O)NCCC2=CCCCC2)cc1,12,5,8,5,6,.,i,25,
CCc1cccc(C)c1NC(=O)CCCC(=O)O,-2,-18,-9,5,-1,-2,i,-60,

# New compounds follow
SMILES,PABP polyA inh,eIF4H inh,CSC inhib,MT1-MMP act inh,MT1-MMP act inh RFP,UUG fidelity,Rce1 inhib,Env fusion inh,others
Cc1[nH]n2c(=O)c3c(nc2c1-c1ccccc1)CCC3,-1,0,.,6,1,-15,i,.,
CC1c2cc3c(cc2CCN1C(=O)c1ccc(Br)cc1)OCCCO3 (stereo not drawn),5,3,33,-3,-10,26,i,31,
CCC(=O)Nc1ccc(C(=O)Nc2ccc(Br)cc2F)cc1,-11,-7,-6,8,1,-19,i,-13,
Cc1nc2ccc(S(=O)(=O)NC(C(=O)N3CCn4c3nc3ccccc34)C(C)C)cc2s1 (stereo not drawn),-8,6,-5,-1,5,-13,i,47,
CCOc1cc(CNc2ccc(O)cc2)ccc1OCc1ccc(Cl)cc1Cl,-4,42,16,8,7,-9,i,.,
O=C(c1ccc(Sc2cccc(Cl)c2)c([N+](=O)[O-])c1)N1CCN(c2ccccn2)CC1,0,-4,55,-1,-3,.,i,22,
CCCCCCNCc1cccc(Br)c1,3,9,1,-4,4,5,i,.,
CCOC(=O)c1ccccc1NC(=O)Cn1cnc2c(cnn2-c2ccccc2)c1=O,-4,3,6,2,7,.,i,.,
O=C(O)c1cccc2c1C(=O)c1cc([N+](=O)[O-])cc([N+](=O)[O-])c1-2,.,.,.,0,3,33,.,-12,
CN1CCN(c2ccc([N+](=O)[O-])cc2C(=O)c2ccc(Br)cc2)CC1,-2,-9,62,2,-13,-11,i,67,
CC(SC(=S)N(C)Cc1cccs1)C(=O)O (stereo not drawn),3,6,-5,4,3,.,i,7,
C=CC[C@H](CC(=O)NCCO)C(=O)N[C@H](COC(=O)[C@@H](CC=C)Cc1ccc(F)cc1)C(C)(C)C,.,.,.,4,2,-1,.,52,
O=C(Oc1ccc(Cl)c(Cl)c1)C1=CC=CN2CCS(=O)(=O)N=C12,.,.,4,2,2,-15,.,-22,
Nc1c(Sc2ccccc2)c(=O)[nH]c(=O)n1Cc1ccccc1,.,.,19,3,-1,-13,i,4,
COc1cc(Cn2ccnc2)c(OC)cc1Cn1ccnc1,-11,-8,-10,-9,3,-20,i,11,
Cc1c(Cl)c([N+](=O)[O-])nn1CC(=O)NC(C)C1CC2CCC1C2 (stereo not drawn),1,-12,-9,5,0,-9,i,.,
Cc1cc2nc[nH]c2cc1[N+](=O)[O-],-1,-2,4,0,5,.,i,-29,
COc1ccc(OC)c(-c2csc(NC(=O)C3=NNC(=O)CC3)n2)c1,18,-9,-3,5,3,-9,i,22,
Nc1nc(SCC(=O)Nc2ccc(Cl)c(S(=O)(=O)N3CCOCC3)c2)n[nH]1,3,-3,-9,2,3,-13,.,19,
COC(=O)c1cnc(Oc2c(Cl)cc(N)cc2Cl)cc1C(F)(F)F,-2,-6,6,0,-2,-2,i,-2,

# Gathered by group, the entries above containing an aryl thioether with sulfur outside any ring (7)
SMILES,PABP polyA inh,eIF4H inh,CSC inhib,MT1-MMP act inh,MT1-MMP act inh RFP,UUG fidelity,Rce1 inhib,Env fusion inh,others
COc1ccccc1NC(=O)CSc1nnc(Cc2ccccc2)o1,63,6,-11,0,3,-10,i,.,eIF4H inh retest=-4;PABP polyA inh retest=19
Cc1ccc(SC(C)C(=O)NCc2ccc(F)cc2)cc1 (stereo not drawn),1,-9,-7,8,3,.,i,18,
Cc1ccc(SCC(=O)Nc2ccc(C(=O)Nc3ccc(O)cc3)cc2)cc1,-6,6,-3,10,8,.,i,2,
O=C(CSc1nnnn1C1CCCC1)Nc1ccc(F)cc1,2,-4,4,3,1,-13,i,6,
O=C(c1ccc(Sc2cccc(Cl)c2)c([N+](=O)[O-])c1)N1CCN(c2ccccn2)CC1,0,-4,55,-1,-3,.,i,22,
Nc1c(Sc2ccccc2)c(=O)[nH]c(=O)n1Cc1ccccc1,.,.,19,3,-1,-13,i,4,
Nc1nc(SCC(=O)Nc2ccc(Cl)c(S(=O)(=O)N3CCOCC3)c2)n[nH]1,3,-3,-9,2,3,-13,.,19,

# (listing goes on)
SMILES,PABP polyA inh,eIF4H inh,CSC inhib,MT1-MMP act inh,MT1-MMP act inh RFP,UUG fidelity,Rce1 inhib,Env fusion inh,others
CCCCCCNC(=O)O[C@H]1Cn2c(=O)n(CCCCCC)c(=O)n2[C@@H]2CN(S(=O)(=O)c3ccc(C)cc3)C[C@]12O,.,.,.,-1,-9,6,.,8,
CCC(=O)c1ccc(OCC(=O)Nc2cccc(S(=O)(=O)N3CCCCCC3)c2)cc1,.,.,.,-8,-30,-6,.,4,
CCOC(=O)CSc1nnc(CNc2ccc(F)cc2)o1,-4,-4,-18,1,0,-8,i,-32,
O=C(NC1CC2CCCC(C1)N2C(=O)Nc1ccc(Cl)c(C(F)(F)F)c1)C1CC1 (stereo not drawn),-6,-8,5,5,-4,-18,i,-117,
Nc1nonc1C(=O)NCCNCc1cc(Br)ccc1OCc1ccccc1F,-8,-8,4,-2,-6,-9,i,78*,
O=C1N/C(=N/S(=O)(=O)c2ccccc2)S/C1=C/c1cccnc1,49,-9,-12,0,-1,-20,i,8,
COc1ccc(-c2nnc(NC(=O)c3ccc(S(=O)(=O)N4CCc5ccccc5C4)cc3)o2)cc1,8,21,.,6,-16,-21,i,.,
Cc1ccc(-n2c(SCC(=O)Nc3cc(C)on3)nc3c(c2=O)SC(C)C3)cc1 (stereo not drawn),4,-3,-9,3,0,-14,i,.,
COc1ccc(CCNC(=O)C2CC(c3cccc([N+](=O)[O-])c3)=NO2)cc1 (stereo not drawn),-6,12,-6,2,-3,6,i,-65,
CCCC(CCC(=O)OC)(C(=O)OCC)c1csc(N)n1 (stereo not drawn),-10,-4,-15,-1,0,3,i,.,
Cc1ccc(NC(=O)N(CCCN2CCOCC2)Cc2cc3cc4c(cc3[nH]c2=O)OCO4)cc1,-7,-10,4,4,-11,-3,i,.,
CC1=C(C(=O)N(C)C)CC(CC(=O)NCC2CCCCC2)C(=O)N1CCC1=CCCCC1 (stereo not drawn),.,.,.,-2,2,-9,.,-69,
O=C(Cc1cccs1)N1CCN(S(=O)(=O)c2cccc([N+](=O)[O-])c2)CC1,19,-6,-11,1,2,-14,i,0,
COc1ccc(OC)c(C2c3[nH]c4ccccc4c3C[C@H]3C(=O)N(CCCOC(C)C)CC(=O)N23)c1 (stereo partly drawn),5,7,-19,-1,1,15,i,1,
Cc1ccc(CN2CCNC(=O)C2CC(=O)N(C)C2CCCCC2)o1 (stereo not drawn),8,13,-15,-3,3,.,i,4,
CCCCCCn1c(=O)c(C(=O)N/N=C/c2cccc(F)c2)c(O)c2ccccc21,12,3,5,1,-4,.,i,-7,
CCOC(=O)C1=CC(=O)CC(C)(C)O1,.,.,.,-3,2,-8,.,11,
COc1ccc(CC(=O)Nc2cc(Cl)ccc2C(=O)O)cc1,-2,-3,25,-2,2,-2,i,-2,
COc1ccc(-c2sc3ccc(OC)cc3c2-c2ccc(OC)c(F)c2)cc1,.,.,46,1,-1,0,.,17,
C[C@@H](C(=O)OCC(=O)c1ccccc1)N1C(=O)C2CCCCC2C1=O (stereo partly drawn),.,.,-10,0,3,-10,.,.,
O=C(NCc1ccccc1)C1CCN(S(=O)(=O)c2ccc(Cl)cc2)CC1,-6,-10,-10,-10,-3,-12,i,4,
O=Cc1ccc(-c2ccc([N+](=O)[O-])cc2Cl)o1,6,-2,.,-3,-10,.,.,-15,
Cc1cccc(NC(=O)C2CCCN2C(=O)Oc2ccccc2)c1C (stereo not drawn),-4,11,-8,6,3,-10,i,.,

# Screening results deposited in PubChem by several laboratories.

# The list is partial (hit frequency here may not be typical).
